Screens (PubChem BioAssay)
HTT promoter inh: inhibits huntingtin promoter activity. HEK293 HTT promoter firefly luciferase reporter (activity 0% = vehicle and -100% = no light), 24 h. Potency, µM (top dose mostly 57.5 µM), inactives show at the highest dose activity change, negative = inhibition, most hits filed as inhibitors. hit rate 0.93% among 48,000. AID 1508623; active = well fitted inhibition curve with a large enough effect; inconclusive = small, poorly fitted or top-dose-only effect; inactive = no such curve, though single readings can be large or run the other way; also: nearly all actives have a fitted effect of over 50% in size
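Firefly luciferase signal from promoter-reporter HEK293 cells was scaled between vehicle (0%) and zero RLU (-100%). Compounds were tested at final concentrations of up to 57.5 uM over 24 h at 37 degrees C. PTC124 at 50 uM final served as control inhibitor.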
PMP22 txn prim: PMP22 gene transcription modulation. S16 Pmp22-F2sN Schwann cells (luciferase reporters placed in the Pmp22 gene), FLuc/NLuc coincidence luminescence, 24 h. Potency, µM (doses to about 57.5 µM), without a hit: top-dose activity change, negative = inhibition, hits mostly inhibitors. hit rate 2% among 43,000. AID 1508649; active = clear falling dose curves in both reporters; inconclusive = both reporters move, but less clearly or upward; inactive = either reporter flat; the % is the NLuc reporter signal; also: % is scaled to controls: 0 for no effect and ±100 for the full control effect; some results filed as inactive show a strong effect at the top dose
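Rat S16 Pmp22-F2sN cells, 500-1,000/well in phenol red-free DMEM + 10% FBS, compound-treated 24 h (37C, 5% CO2). Luminescence: FLuc read, Stop&Glo added, NLuc read.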
* = called active by the depositor; ? = inconclusive; / = no result given; [ ] = another dose, or the depositor's remark. Potency is read from the fitted curve at half-maximal effect. Compounds were not picked by outcome; overall some 2.4% were active at least once.

Order of values – HTT promoter inh	PMP22 txn prim
Clc1ccc(C(Cn2ccnc2)OCc2c(Cl)cccc2Cl)c(Cl)c1 (stereo not drawn)
    ?	/
CSc1ccc(CCNC(=O)C2CCN(c3nc4ccccc4nc3C(F)(F)F)CC2)cc1
    -9%	?
CC(=O)c1c(C)oc2c(Cl)cc(NS(=O)(=O)c3cc(C)c(C)cc3C)cc12
    -8%[11.5 µM]	1%
COc1cccc(-c2nc(CS(=O)(=O)CC(=O)NCCc3ccc(Cl)cc3)c(C)o2)c1
    ?	?
CC1(C)CC(=O)c2cc(-c3nc(-c4ccc(Cl)cc4)cs3)c(=O)[nH]c2C1
    -2%	-10%
CC(O)C1C(=O)N2C(C(=O)O)=C(SC3CNC(C(=O)N(C)C)C3)C(C)C12 (stereo not drawn)
    0%	/
COc1ccc(-c2nc(Cn3c(=O)cc(-c4ccccc4)c4c(C)nn(C)c43)c(C)o2)cc1OC
    12%	-20%
COc1ccc(C(=O)Nc2nc3n(n2)C(c2ccccc2)C=C(c2ccccc2)N3)cc1 (stereo not drawn)
    ?	?
COc1ccc(CNC(=O)c2ccc(NC(=O)N3CCSc4ncccc43)cc2)cc1OC
    -2%	22%
COc1ccc(NC(=O)c2oc3ccccc3c2NC(=O)C23CC4CC(CC(C4)C2)C3)cc1
    -15%	3%
Cc1nc2cccnc2n1-c1cccc(C(=O)N2CCN(c3ccc(Cl)cc3)CC2)c1
    10µM*	16µM*
CCCCC(CC)COC(=O)c1ccccc1C(=O)O (stereo not drawn)
    -2%[116 µM]	/
Cc1ccc(NC(=O)C2CCN(c3nc4ccccc4[nH]3)CC2)c(C)c1
    7%	1%
Cc1ccc(C)c(-n2nnc(C(=O)Nc3ccc(Br)cc3)c2C)c1
    ?	-56%
O=C(CC1C(=O)OCCN1Cc1ccccc1)Nc1ccc(F)cc1 (stereo not drawn)
    -22%[11.5 µM]	-12%
CN(C)S(=O)(=O)c1ccc2c(c1)N(CC(=O)N1CCN(c3ccc(F)cc3)CC1)CCS2
    -19%	?
CCC(=O)N1CCc2cc(Br)cc(S(=O)(=O)N3CCN(c4cccc(Cl)c4)CC3)c21
    -4%	?
CCOC(=O)c1c(S(=O)(=O)N2CCCC(C(=O)NCc3ccc(F)cc3)C2)c(C)n(CC)c1C (stereo not drawn)
    -13%	-8%
Cc1cc(NC(=O)COc2ccccc2)cc(-c2nc3ccccc3o2)c1O
    -22%	-15%
CCOC(=O)c1ccc(CSc2nnc3cc(C)c4ccccc4n23)cc1
    -10%	-9%

Next structures:
Order of values – HTT promoter inh	PMP22 txn prim
Cc1c(CNC(C)CCc2ccccc2)c(C(=O)O)c(C)n1Cc1ccc(F)cc1 (stereo not drawn)
    -27%	7%
CCc1ccc(CNC(=O)c2cccc(-n3cnc4cccnc43)c2C)cc1
    ?	?
CCOc1ccc(S(=O)(=O)NCCc2csc3nc(-c4ccc(OC)c(OC)c4)nn23)cc1
    16%	-25%
COc1ccc(NC(=O)CSc2nc3ccccc3n2Cc2cccc(OC)c2)cc1
    ?	-20%
CCc1ccc(NC(=O)c2ccc(-c3ccccc3)s2)cc1
    22%	-3%
CSc1cccc(NC(=O)c2cc3c(COC(C)=O)cnc(C)c3oc2=O)c1
    1%	-5%
CC(C)CCNC(=O)c1ccc2c(c1)N(C)C(=O)c1ccccc1S2
    -18%	-13%
CCn1cc(C(=O)NCc2ccccc2Cl)c(=O)c2cc(S(=O)(=O)N3CCc4ccccc4C3)ccc21
    -11%	-33%
Cc1ccc(Cn2c(SCC(=O)C(C)(C)C)nc3ccsc3c2=O)cc1
    ?	?
COc1c2occc2c(OC)c2c(=O)cc(C)oc12
    5%	/
COc1ccc(OC)c(/C=C(/C#N)c2nc(-c3ccc(-c4ccccc4)cc3)cs2)c1
    -9%	-23%
CCN1CCc2c(sc(-n3cccc3)c2C(C)NC(=O)Nc2ccccc2C)C1 (stereo not drawn)
    -25%	?
CCOC(=O)C1CCCN(C(=O)Cn2ncc3c([nH]c4ccc(C)cc43)c2=O)C1 (stereo not drawn)
    -3%	0%
Cc1cc2n(n1)CCCN2C(=O)Nc1ccc(Cl)cc1
    23%	-1%
Cc1cn(S(=O)(=O)c2ccc(F)c(Cl)c2)cn1
    2%	8%
Cc1ccc(C)c(NC(=O)CSc2nnc(CNC(=O)c3ccccc3)n2-c2ccccc2)c1
    -13%	2%
Cc1ccc(N(Cc2cccs2)C(=O)c2ccco2)cc1
    -15%	10%
CCOC(=O)c1cccc(NS(=O)(=O)c2cc3[nH]c(=O)c(=O)[nH]c3cc2C)c1
    13%	10%
Cc1ccccc1OCC(=O)Nc1ccc2nc(SCC(N)=O)sc2c1
    2%	-14%
CCC1CCCCN1CCCNC(=O)c1c(O)nc2ccccn2c1=O (stereo not drawn)
    -4%	8%

Profiles, quoted from the list. Screens in order: HTT promoter inh	PMP22 txn prim
Shown for `CSc1cccc(NC(=O)c2cc3c(COC(C)=O)cnc(C)c3oc2=O)c1` → 1%	-5%
Shown for `CCOc1ccc(S(=O)(=O)NCCc2csc3nc(-c4ccc(OC)c(OC)c4)nn23)cc1` → 16%	-25%
Shown for `CCn1cc(C(=O)NCc2ccccc2Cl)c(=O)c2cc(S(=O)(=O)N3CCc4ccccc4C3)ccc21` → -11%	-33%
Shown for `CCOC(=O)c1cccc(NS(=O)(=O)c2cc3[nH]c(=O)c(=O)[nH]c3cc2C)c1` → 13%	10%
Shown for `CCC1CCCCN1CCCNC(=O)c1c(O)nc2ccccn2c1=O` (stereo not drawn) → -4%	8%

(more compounds)
Order of values – HTT promoter inh	PMP22 txn prim
Cn1cc(S(=O)(=O)c2cccc(Cl)c2)c(=O)c2cc(F)c(N3CCCCCC3)cc21
    -10%	-5%
CCc1cccc(NC(=O)CCc2c(C)nc3c(-c4ccccc4)c(C)nn3c2C)c1
    -15%	0%
COC(=O)c1sc(NC(=O)c2cc3nc(-c4ccc(Br)cc4)cc(C(F)(F)F)n3n2)c(C(=O)OC)c1C
    -12%	-12%
O=C(O)c1ccccc1OP(=O)(O)O
    9%	/
Cc1oc2ncnc(N3CCOCC3)c2c1C(=O)N(Cc1ccccc1)C(C)C
    -9%	2%
COc1ccc(CC2c3cc(OC)c(OC)cc3CC[N+]2(C)CCC(=O)OCCCCCOC(=O)CC[N+]2(C)CCc3cc(OC)c(OC)cc3C2Cc2ccc(OC)c(OC)c2)cc1OC (stereo not drawn)
    2%[11.5 µM]	/
CCN(Cc1ccccc1)C(=O)c1cnn(-c2ccc(F)cc2)c1-n1cccc1
    ?	-14%
CCOc1ccc(CNS(=O)(=O)c2cc(-c3cc(C)no3)ccc2C)cc1OC
    -29%	-9%
Cc1cc(C)cc(NC(=O)CSCc2cc(=O)c3cc(Cl)ccc3[nH]2)c1
    1%	5%
CCc1ccc(C(=O)c2cn(CC(=O)NCCc3ccc(OC)c(OC)c3)c3nc(C)ccc3c2=O)cc1
    -10%	-12%
COc1ccc(-c2c(C#N)c(SCC(=O)Nc3ccc(C)c(C)c3)nc(C)c2C(=O)Nc2ccc(Cl)cc2)cc1
    -27%	-4%
CC(C)n1c(=O)c2oc3ccccc3c2n(Cc2ccccc2F)c1=O
    -20%	4%
CC(=O)N1CCCc2cc(S(=O)(=O)N3CCC(C(=O)N(C)C4CCCCC4)CC3)ccc21
    ?	-28%
CCc1ccccc1NC(=O)Nc1nnc(N2CCCC2)s1
    -13%	-1%
COc1ccc(-c2cc(C(F)(F)F)n3nc(C)c(-c4ccccc4)c3n2)cc1OC
    -7%	11µM*
CCOC(=O)c1cc2c(=O)n3ccccc3nc2n(Cc2ccco2)c1=NC(=O)c1ccc(Br)cc1
    -18%	?
NCc1ccc(S(N)(=O)=O)cc1
    -4%	/
Cc1ccccc1Nc1c(-c2ccc(N3CCOCC3)cc2)nc2ncccn12
    8%	19%
CN1CCN(c2ccc3nc(-c4c(N)c5c(F)cccc5[nH]c4=O)[nH]c3c2)CC1
    -2%	/
CN(Cc1ccccc1)c1ccc(-c2nc(-c3cccnc3)no2)cc1[N+](=O)[O-]
    0%	-4%

Going on with the list:
SMILES,HTT promoter inh,PMP22 txn prim
CCC(C)NC(=O)c1cccc(NC(=O)c2nsc3ccccc23)c1 (stereo not drawn),46%[activator],?
COc1ccc(OC)c(CCNC(=O)c2nn(C)c3c2CSc2ccccc2-3)c1,-27%,?
CC1=C(C(=O)Nc2ccc(F)cc2F)C2(CCCCCC2)OC1=O,-9%,-6%
Cc1ccc(NC(=O)c2nn(C)c3c2CS(=O)(=O)c2ccccc2-3)c(Cl)c1,-1%,-14%
COc1ccc(Nc2cc(C)nc3c(C)c(C)ccc23)cc1,-16%,14µM*
CC(=O)N1CCc2c(sc3c2c(=O)n(-c2cccc(Cl)c2)c(=O)n3Cc2ccc(F)cc2Cl)C1,0%,-17%
Cc1ccc(NC(=O)Cn2c(=O)n(Cc3nc(C)no3)c(=O)c3cc4c(cc32)OCO4)cc1,-18%,12%
CC(=O)c1ccc(NC(=O)c2nn(C)c3c2CS(=O)(=O)c2ccccc2-3)cc1,4%,-20%
COc1ccc(Nc2oc(/C=C/c3cccc(OC)c3)nc2C#N)cc1,1%,-7%
COc1ccc(NC(=O)CCCN2C(=O)COc3ccc(C)cc32)cc1OC,-30%,-38%
COc1cc(NC(=O)CC(c2cccs2)N2Cc3ccccc3C2=O)cc(OC)c1OC (stereo not drawn),-9%,-56%
CCc1ccc(Nc2nn3c(=O)c4cc5c(cc4nc3s2)OCO5)cc1,2%,-7%
O=C(NCc1cccc(Br)c1)c1cccn1-c1nnc(N2CCCCC2)s1,-44%,?
COc1ccccc1CNC(=O)CSc1nc(=O)[nH]c2c1CCCC2,-7%,-2%
Cc1ccc(C(=O)Nc2ccccc2C(=O)OCc2cc(=O)n3nc(C4CC4)sc3n2)cc1,3%,-2%
Cc1ccc(C)c(N2CCN(c3ncnc4c3nc3n4CCCC3)CC2)c1,-14%,-18%
N#Cc1ccc(CSc2nnc(-c3ccc(Br)cc3)o2)cc1,-14%,10%
CCOC(=O)CSc1nc2cc3c(cc2c(=O)n1CCCC(=O)NCCc1ccc(OC)c(OC)c1)OCO3,-15%,4%
O=C(Nc1ccc(F)cc1F)C(Cc1ccccc1)N1Cc2ccccc2C1=O (stereo not drawn),-24%,-10%
COc1cc(C2c3c(-c4cc(C)ccc4O)n[nH]c3C(=O)N2CCCO)ccc1OCCC(C)C (stereo not drawn),?,-22%
Cc1cc(=O)c2cc(C(=O)Nc3ccc(C)c(C)c3)ccc2[nH]1,23%,0%
Cc1ccccc1CNC(=O)C(=O)NCC(c1cccs1)S(=O)(=O)c1ccc(Cl)cc1 (stereo not drawn),?,15µM*
CCC(=O)NCC(c1ccc2c(c1)OCO2)N1CCN(c2ccccc2)CC1 (stereo not drawn),-9%,-30%
CC(C)Oc1ccc(C(=O)N2CC(=O)Nc3ccc(F)cc3C2c2ccc(F)cc2)cc1 (stereo not drawn),-27%,-15%
Cc1cccc(-c2nc(-c3ccc4c(c3)[nH]c(=O)n4C)no2)c1,12%,-24%
Cc1cccc(C(=O)Nc2nnc(S(=O)(=O)N3CCC(C)CC3)s2)c1,-11%,9%
Cc1ccc2c(c1)C(=O)C(=O)N2Cc1ccc(OCCC(C)C)cc1,-5%,4.6µM*
COc1ccc(CCNC(=O)Cn2ncc3c(C)n(Cc4ccccc4F)c(C)c3c2=O)cc1OC,-17%,0%
COc1ccc(NC(=O)C2CCN(S(=O)(=O)c3c(C)noc3/C=C/c3cccs3)CC2)cc1Cl,?,-6%
COc1ccc(CCNC(=O)Cc2ccc(NC(=O)N3CCSc4ncccc43)cc2)cc1OC,?,-18%

Next part
SMILES,HTT promoter inh,PMP22 txn prim
Cc1ccc(C)c(Nc2nc(-c3ccccc3)c3cc(Br)ccc3n2)c1,-4%,14%
CCOC(=O)CC(NC(=O)Cn1nnc(-c2ccc(C(F)(F)F)cc2)n1)c1ccc(C)cc1 (stereo not drawn),-27%,-29%
COc1ccc(-c2noc(CSc3nnc(Cc4ccccc4)n3-c3ccccc3)n2)cc1OC,?,?
CC(C)c1ccc(Cc2cn3cc(-c4cc5ccccc5oc4=O)nc3s2)cc1,-35%,?
CCCc1cnc2c(c1SCC(=O)NCc1ccc(C)cc1)c(=O)n(C)c(=O)n2C,-12%,6%
Cc1ccc(CNC(=O)NC2COc3ccccc3C2)cc1 (stereo not drawn),4%,-1%
COc1ccccc1C(=O)NC1=NC(c2ccc(Br)cc2)CC(=O)N1 (stereo not drawn),48%[activator],-4%
COc1cc(C2CC(=O)N(Cc3ccc(F)cc3)c3ccccc3S2)cc(OC)c1OC (stereo not drawn),14µM*,?
O=C(CCc1ccccc1)NC1CC(=O)N(c2ccccc2)C1 (stereo not drawn),-19%,14%
CC(=O)c1ccc(NC(=O)COc2ccccc2-c2nc(-c3ccc(C)cc3)no2)cc1,34%[activator],11%
COc1ccccc1C(=O)n1nc(-c2ccccc2)nc1NCc1ccc(Cl)cc1,4%,?
O=C(Cn1c(SCCOc2ccccc2)nc2ccccc21)N1CCOCC1,-11%,1%
